Cruzain inh noDet = qHTS Assay for Promiscuous and Specific Inhibitors of Cruzain (without detergent); purified cruzain, Z-FR-AMC fluorescence, no detergent; Potency, µM, inactives show max response, negative = inhibition, hits mostly inhibitors; 200,000 tested, 2.3% active; AID 1476, 2009; active = well fitted curve in the direction sought with a large enough effect; inconclusive = small, poorly fitted or top-dose-only effect, or another doubt; inactive = no such curve, though single readings can be large; an effect the other way counts as inactive or inconclusive;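 also: plate controls were enzyme without inhibitor for no effect and buffer without enzyme for full effect; nearly all actives have a fitted effect of over 40% in size; top concentration of the series not given in the record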
Target sequence (P25779 123-467 limits assumed): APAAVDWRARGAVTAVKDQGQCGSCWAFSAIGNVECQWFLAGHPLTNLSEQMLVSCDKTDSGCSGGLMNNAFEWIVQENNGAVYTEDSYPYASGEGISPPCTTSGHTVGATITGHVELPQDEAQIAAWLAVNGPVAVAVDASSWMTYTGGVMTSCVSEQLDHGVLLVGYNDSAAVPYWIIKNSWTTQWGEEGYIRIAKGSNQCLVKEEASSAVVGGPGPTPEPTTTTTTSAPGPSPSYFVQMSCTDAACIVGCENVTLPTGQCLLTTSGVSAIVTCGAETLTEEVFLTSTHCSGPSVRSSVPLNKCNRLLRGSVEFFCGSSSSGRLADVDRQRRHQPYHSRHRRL
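Purified cruzain at 1.5 nM, pre-incubated 15 min with compound at room temperature in 100 mM sodium acetate pH 5.5, 5 mM DTT, 0.00005% Triton X-100. Reaction started with 2 uM Z-FR-AMC; AMC fluorescence increase over 60 s gives rate.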
MARV entry inh = qHTS for inhibitors of binding or entry into cells for Marburg Virus | Marburg virus pseudotyped entry inhibition, cell reporter; control for the full effect not named in the record; about a third of the inactives were read at about 46 µM | Potency, µM (series often up to 37.8 µM), inactives show top-dose activity change, negative = inhibition, usual class: inhibitors | 300,000 tested, 1.8% active | AID 540276, 2011; active = well fitted inhibition curve with a large enough effect; inconclusive = small, poorly fitted or top-dose-only effect, or effect the other way; inactive = flat fitted curve, though single readings scatter; tested in HEK293 cells; about a fifth of its hits are not listed in these tables; also: % is scaled to controls: 0 for no effect and ±100 for the full control effect; luciferase read-out
2A StopGo = High Throughput Screening for Foot and Mouth Disease Virus Antivirals; human cells with a luciferase reporter of 2A StopGo recoding; control for the full effect not named in the record; Potency, µM (titrated, usually from 57.9 µM), for inactives: at the top dose signal change, negative = less light; 410,000 tested, 1.2% active; AID 1159524, 2015; active = well fitted falling curve with a large enough effect; inconclusive = small, poorly fitted or top-dose-only effect; inactive = no such curve, though single readings can be large or run the other way; tested in HEK293T cells; also: % is scaled to controls: 0 for no effect and ±100 for the full control effect; nearly all actives have a fitted effect of over 45% in size; luciferase light after 4 h
NS1 inh = qHTS Assay for Inhibitors of Influenza NS1 Protein Function; S. cerevisiae slowed by influenza A NS1, growth recovery by OD600; Potency, µM (titrated, usually from 46.1 µM), without a hit: at the highest dose activity, positive = more growth; 270,000 tested, 0.4% active; AID 2326, 2010; also: actives are rising curves; nearly all actives have a fitted effect of over 50% in size
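Read-out: OD600 growth recovery of NS1-expressing budding yeast. Cells grown overnight at 30C in -URA glucose medium, washed, resuspended and diluted 1:100 in 2% galactose assay medium, pH 6.0. Same strain lacking NS1 served as positive control.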
Cruzain inh Det = qHTS Assay for Promiscuous and Specific Inhibitors of Cruzain (with detergent) | AID 1478, 2009 | Potency, µM, without a hit: max response, negative = inhibition, actives largely listed as inhibitors | Cruzipain (Trypanosoma cruzi), P25779 | purified cruzain, Z-FR-AMC fluorescence, 0.01% Triton | 200,000 tested, 0.43% active; active = well fitted curve in the direction sought with a large enough effect; inconclusive = small, poorly fitted or top-dose-only effect, or another doubt; inactive = no such curve, though single readings can be large; an effect the other way counts as inactive or inconclusive;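 also: plate controls were neutral wells for no effect and buffer without enzyme for full effect; nearly all actives have a fitted effect of over 40% in size; top concentration of the series not given in the record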
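Detergent-containing run (0.01% Triton X-100) in acetate buffer pH 5.5 with 5 mM DTT: enzyme at 1.5 nM final, 15 min compound preincubation at room temperature, then 2 uM Z-FR-AMC substrate. Activity taken as 60 s fluorescence increase at 360/450 nm.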
SARS PLpro yeast = qHTS of Yeast-based Assay for SARS-CoV PLP; 330,000 tested, 0.19% active; S. cerevisiae expressing SARS-CoV PLpro, growth rescue; control for the full effect not named in the record; Potency, µM (doses to about 32.9 µM), inactives show at the top dose activity, positive = growth rescue; AID 485353, 2010; also: 0% is about no effect; nearly all actives have a fitted effect of over 55% in size; growth read by luminescence after 48 h
LASV entry inh = qHTS for Inhibitors of binding or entry into cells for Lassa Virus; Lassa virus pseudotype entry inhibition, cell reporter; control for the full effect not named in the record; Potency, µM (highest dose often 37.9 µM), without a hit: at the top dose activity change, negative = inhibition, actives largely listed as inhibitors; 300,000 tested, 1.2% active; active means well fitted inhibition curve with a large enough effect; inconclusive means small, poorly fitted or top-dose-only effect, or effect the other way; inactive means flat fitted curve, though single readings scatter; tested in HEK293 cells; also: % is scaled to controls: 0 for no effect and ±100 for the full control effect; nearly all actives have a fitted effect of over 50% in size; luciferase read-out
RE007 growth inh = qHTS Assay for Inhibitors of the HIV-1 protein Vpr | S. pombe RE007 Vpr strain, BacTiter-Glo ATP luminescence, 24 h; control for the full effect not named in the record | Potency, µM (doses to about 92.2 µM), inactives show top-dose activity change, negative = less growth | 360,000 tested, 0.21% active | AID 651644, 2012; active = well fitted falling curve with a large enough effect; inconclusive = small, poorly fitted or top-dose-only effect; inactive = no such curve, though single readings can be large or run the other way;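 also: % is scaled to controls: 0 for no effect and ±100 for the full control effect; nearly all actives have a fitted effect of over 50% in size; the assay follows cell death caused by Vpr and the record does not say whether a fall means rescue or toxicity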
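Fission yeast strain RE007, carrying one chromosomally integrated HIV-1 vpr copy, was seeded at OD 0.01 in PMG+AL medium with 23 nL pinned compound. After 24 h at 30 °C and 99% humidity, viability was read by BacTiter-Glo luminescence.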
* hit, by the source's call; ? = inconclusive; / = no result given; & = joins results of further samples; [ ] = remark or other dose. Unless noted, calls follow the shape of the dose curve; as a rule, active means well fitted rising curve with a large enough effect; inconclusive means small, poorly fitted or top-dose-only effect; inactive means no such curve, though single readings can be large or run the other way. Potency is read from the fitted curve at half-maximal effect.

SMILES | Cruzain inh noDet | MARV entry inh | 2A StopGo | NS1 inh | Cruzain inh Det | SARS PLpro yeast | LASV entry inh | RE007 growth inh
O=C(c1ccc(Cl)cc1Cl)N1CCc2ccccc21 | / | -18%[46.1 µM] | 0% | 3% | / | -2% | 17%[46.1 µM] | 5%
Cc1ccc(C)c(NC(=S)N2CCC(NC(=O)c3ccc(F)cc3)CC2)c1 | / | -14%[46.1 µM] | -8% | 4% | / | -3% | ? | -8%
Cc1ccc(-c2noc(CSc3nnc(-c4ccccc4)n3C)n2)cc1 | -22% | ? | 6% | -32% | -4.7% | -6% | 9% | -2%
CC(C)Cc1ccc(CN2CCCC(NC(=O)CCN3CCCO3)C2)cc1 (stereo not drawn) | / | / | ? | -3% | / | 0% | / | -6%
COc1ccc(Cl)cc1NC(=O)CSc1nnc(CNC(=O)c2cccs2)o1 | / | 18%[46.1 µM] | 42%[activator] | 2% | / | ? | ? | 15%
Cc1ccc(NC(=O)N2Cc3ccccc3CC2C(=O)NC(C)(C)C)cc1 (stereo not drawn) | -3% | 1% | 1% | -1% | 1.8% | 4% | 8% | 6%
Cn1c(=O)c(=O)n(C)c2cc(S(=O)(=O)N3CCN(c4ccccc4F)CC3)ccc21 | -6%&-7% | -23%[46.1 µM] | ? | 8% | 0.4%&-1.7% | 22% | 7%[46.1 µM] | 23%
CCn1c(SCC(=O)N(C)CC(=O)Nc2cccc(OC)c2)nnc1-c1ccco1 | / | 16% | -6% | / | / | -3% | 3% | 3%
O=C(Nc1nncs1)c1cccc(S(=O)(=O)N2CCOCC2)c1 | -3% | -3% | 13% | 15% | 4.9% | 1% | 0% | -3%
O=C(CSc1ccccc1)Nc1ccc(S(=O)(=O)NCC2CCCO2)cc1 (stereo not drawn) | -19% | 17% | / | -8% | -9.3% | -7% | -24% | 15%
O=S(=O)(CC(O)COc1ccccc1Cl)c1ccccc1 (stereo not drawn) | 5% | 0% | 0% | -3% | 2.8% | 4% | -13% | -9%
COC(=O)c1c(NC(=O)CN2CCN(c3ccccc3OC)CC2)c2cc(C)ccc2n1C | 22% | 27% | 20% | -22% | -3.6% | 17% | 18% | 19%
O=C(COc1ccc(Br)cc1)NCCCNC(=O)c1ccncc1 | / | / | -11% | 2% | / | 13% | / | 19%
Cc1cc(N2CCN(C)CC2)nc(=S)[nH]1 | / | 21%[46.1 µM] | 2% | / | / | 0% | -8%[46.1 µM] | -1%
Cn1c(Sc2ccc(C(=O)O)cc2[N+](=O)[O-])nnc1-c1ccccc1 | / | ? | -4% | 5% | / | -2% | 10% | -11%
Cc1cc(OCC(=O)N2CCc3ccccc3C2)c2c(-c3ccccc3)cc(=O)oc2c1 | -7% | ? | -25% | 4% | -3.0% | -3% | ? | 7%
COC(=O)c1ccc(C2/C(=C(\O)c3ccc4c(c3)OCCO4)C(=O)C(=O)N2CCCN(C)C)cc1 (stereo not drawn) | 1% | 3%&-12% | -5% | -10% | -11% | -5% | ? | 0%
Cc1ccc(N(C(=O)c2csnn2)C(C(=O)NC2CCCC2)c2cccnc2)c(C)c1 (stereo not drawn) | / | ? | -8% | 1% | / | 10% | 1% | 0%
Nc1nn(-c2ccccc2Cl)cc1-c1nn[nH]n1 | / | / | 5% | 0% | / | 0% | / | -7%
Cc1cccc(NC(=O)NCCOCCn2c(=O)oc3ccccc32)c1C | 18% | 4%[46.1 µM] | -12% | / | 6.3% | / | 8%[46.1 µM] | /
Cc1cc(C)n(-c2c(F)c(F)c(CN3CCOCC3)c(F)c2F)n1 | 2% | 3% | -19% | 0% | 6.4% | 0% | 17% | -8%
Cc1ccc(C(=O)OCC(=O)N2C(C)CCCC2C)s1 (stereo not drawn) | / | ? | 47%[activator] | / | / | -5% | 16% | -1%
COc1cc(/C=N/NC(N)=O)cc([N+](=O)[O-])c1O | / | 28%[46.1 µM] | -4% | 7% | / | 1% | ? | -7%
CS(=O)(=O)N1CCN(c2ccccc2NC(=S)NC(=O)c2ccco2)CC1 | / | -18% | -25% | / | / | / | -29% | 12%
CC(C)C(=O)NC(=S)Nc1ccc(S(=O)(=O)N2CCN(C)CC2)cc1 | -5% | 16% | ? | -1% | -1.6% | -5% | 0% | -1%
CCCN(CC1CC1)C(=O)CCc1nnc(C(OC)c2ccccc2)o1 (stereo not drawn) | / | / | 17% | 4% | / | 1% | / | -12%
O=[N+]([O-])c1ccc2[nH]c(O)c(N=Nc3ccc(F)cc3)c2c1 | / | / | -20% | -1% | / | 1% | / | -9%
COc1ccc(OC(=O)COc2ccc(Cl)cc2)cc1 | / | 1%[46.1 µM] | -1% | 4% | / | 2% | -23%[46.1 µM] | -21%
N=c1n(CCO)c2ccccc2n1CCN1CCCCC1 | / | / | -3% | 0% | / | 0% | 0% | 27%
COc1cc(O)c(C(CCN2CCCCC2)c2ccc3c(c2)OCO3)c(OC)c1 (stereo not drawn) | / | / | -20% | 0% | / | -2% | / | -22%
CN(C)c1ccc(CNC(=O)c2cnc3sc(N4CCCC4)nn3c2=O)cc1 | ? | / | -6% | / | -0.6% | / | -1%[46.1 µM] | /
CCN(CC)c1ccc(C(=O)N2CCC(c3ccncc3)CC2)cc1 | -1% | / | -1% | / | 0.6% | / | ? | /
O=C(O)CCC(=O)N1CCc2cc(S(=O)(=O)NC3CCCc4ccccc43)ccc21 (stereo not drawn) | ? | 1% | 12% | 3.5µM* | 0.0% | 1% | 1% | 11%
COC(=O)c1ccccc1NC(=O)c1cncc(Br)c1 | 4% | 4% | -24% | -8% | -0.6% | -5% | 10% | 4%
Cc1ccc(C)c(OCCn2cc(/C=C(\C#N)C(=O)NCC3CCCO3)c3ccccc32)c1 (stereo not drawn) | 0% | ? | ? | ? | 0.2% | 17% | ? | 7%
NCC(O)c1cc(O)c(O)cc1F (stereo not drawn) | 11% | ? | -2% | -1% | -8.0% | / | 0% | 0%[18.4 µM]
COc1cccc(S(=O)(=O)Nc2cccnc2)c1 | -6% | 0% | 12% | -5% | -3.1% | -1% | 21% | -7%
COc1ccc(/C=C(/NC(=O)c2ccccc2)C(=O)N/N=C/c2ccncc2)cc1 | -21% | 2% | -1% | -5% | -4.5% | 7% | ? | -5%
Cc1nccnc1Sc1ccccc1 | / | ? | 18% | 3% | / | 2% | 16%[46.1 µM] | -4%
CNC1=C(N(C(C)=O)c2ccc(Br)cc2)C(=O)c2ccccc2C1=O | -11% | 2.3µM* | 8.9µM* | -39% | -5.6% | -13% | 5.6µM* | ?
Cc1c(C)n(Cc2ccccc2)c2ccc(C(=O)N3CCN(c4ccc(F)cc4)CC3)cc12 | 32µM* | / | 4% | / | -1.1% | / | 18%[46.1 µM] | /
CN(Cc1cccnc1)C(=O)c1cc(COc2ccc3ncccc3c2)on1 | / | ? | ? | -8% | / | -1% | ? | -2%
O=C(CN1C(=O)S/C(=C\c2cccs2)C1=O)Nc1ccc(C(=O)O)c(O)c1 | / | / | ? | 7% | / | 1% | / | 5%
Cc1ccc(CNC(=O)c2ccccc2NC(=O)CN2CCN(C)CC2)cc1 | / | -20% | 13% | -3% | / | -1% | 2% | -6%
COc1ccc2c(c1)c1c(c(=O)n(Cc3ccccc3)c(=O)n1CC(=O)Nc1c(C)cccc1C)n2C | 3% | / | -8% | / | -0.6% | / | 7%[46.1 µM] | /
O=C(OCc1nc2ccccc2s1)c1ccc(Br)s1 | 15% | ? | 62%[activator] | -38% | -1.1% | -7% | 30% | -9%
CCCCCn1c(=O)[nH]c2cc(C(=O)N3CCN(c4ccccc4F)CC3)ccc2c1=O | -8% | 1%&24%[46.1 µM] | 4%&-22% | -1% | 0.2% | 4% | 6%&1%[46.1 µM] | 0%
COc1ccccc1CC(=O)NCc1nn(-c2ccccc2)nc1C | / | / | -4% | 0% | / | 0% | / | -18%
COc1ccccc1CNC(=O)COc1ccc(S(=O)(=O)N2CCCC2)cc1 | / | 1%[46.1 µM] | 4% | 3% | / | -2% | -2% | -7%
Cc1cccc(S(=O)C(c2ccccc2)c2ccccc2)c1 (stereo not drawn) | / | -22% | ? | / | / | / | -29% | 3%
The results go on:
SMILES | Cruzain inh noDet | MARV entry inh | 2A StopGo | NS1 inh | Cruzain inh Det | SARS PLpro yeast | LASV entry inh | RE007 growth inh
O=c1[nH]c(O)c(N=Nc2cc([N+](=O)[O-])ccc2O)c(=O)[nH]1 | / | 7%[46.1 µM] | -26% | 2% | / | -1% | 3% | -21%
O=C(COc1ccc(Br)cc1Br)NC(=S)N1CCCc2ccccc21 | ? | 18% | -9% | 10% | -4.7% | -1% | ? | -3%
COc1ccc(C(=O)Nc2ccccc2C(=O)NC(Cc2ccc(O)cc2)C(=O)NNC(=O)c2ccccc2Cl)cc1 (stereo not drawn) | -3% | -29% | 9% | ? | -9.1% | -14% | -6% | 9%
O=C(CCc1nc2ccccc2c(=O)[nH]1)Nc1ccc(Cl)c(Cl)c1 | -15% | -9% | -17% | 8% | -6.2% | 7% | 8% | /
CCOC(=O)c1[nH]c(C)c(CCC(=O)Nc2ccccc2C(=O)OC)c1C | 9% | / | -9% | / | 0.1% | / | ? | /
COc1ccc(-c2nc(SCC(=O)Nc3ccc4c(c3)OCO4)c(-c3ccc(F)cc3)[nH]2)cc1OC | 2% | / | ? | / | -7.3% | / | -6%[46.1 µM] | /
CC(=O)C1=C(O)C(=O)N(c2ccc(O)cc2)C1c1cccc([N+](=O)[O-])c1 (stereo not drawn) | / | / | -13% | 13% | / | 0% | / | 10%

Assay outcomes deposited in PubChem by National Center for Advancing Translational Sciences (NCATS).
